Vif A3G: inhibitors of Vif binding to APOBEC3G peptide, primary screen, biochemical, TR-FRET, GST-Vif 1-94, biotin-A3G peptide, dose response retest (AID 1117319); actives 0.57% (n = 260,000); inhibition, %, or IC50 in µM where a hit was titrated; TR-FRET GST-Vif / biotin-A3G peptide binding; higher % means a stronger effect; test concentration not given here; strong numbers were not always called active;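 active = above the screen mean plus three standard deviations and confirmed in dose response; inconclusive = results disagree or hit not tested in dose response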;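 note: Vif residues 1-94 fused to GST binding biotinylated APOBEC3G peptide 110-148; 0% = full assay without inhibitor and 100% = GST in place of GST-Vif; retest series ran down from 100 µM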
ALR H2O2 inh: inhibitors of human sulfhydryl oxidase ALR; inhibition, % (no concentration beside the values); actives 3.8% (n = 290,000); P55789; purified ALR, DTT oxidation, H2O2 HRP-luminol luminescence;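 active = mean and each replicate at 75% or more; inconclusive = only one of the two met; inactive = neither met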;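 note: stock transfer was 7.5 nL into about 7.5 µL; 0% = neutral wells and 100% = wells with inactivated enzyme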
Target sequence (P55789 whole entry, looked up): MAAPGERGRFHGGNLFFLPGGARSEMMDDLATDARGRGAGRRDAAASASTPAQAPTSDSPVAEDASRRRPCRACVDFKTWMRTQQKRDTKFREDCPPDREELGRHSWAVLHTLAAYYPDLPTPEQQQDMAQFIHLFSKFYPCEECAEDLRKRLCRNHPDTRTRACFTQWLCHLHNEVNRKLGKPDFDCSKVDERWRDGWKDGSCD
E coli growth: E. coli growth inhibition; Escherichia coli growth, OD600, 23 h; active compounds read low; OD600 absorbance (test concentration not listed); actives 0.21% (n = 330,000);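 active = OD600 absorbance below the run mean of sample wells minus 3.6 SD, in any replicate, cut at about 0.56 in these data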;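 note: stock transfer was 300 nL into about 60 µL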
HNF4A DNA FP: change in binding of human HNF4 alpha to DNA | HNF4a-FITC DNA binding, fluorescence polarization, 1 h | P41235 | activity change, % at 10 µM | actives 0.3% (n = 360,000); in the data active = activity change above about 30%, passing the limit was not always enough;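 note: controls were the assay level and a saturating level of protein; the project sought stronger binding though the title names inhibitors; some compounds called inactive have numbers as strong as hits; positive values seem to mean higher polarization but the record does not say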
Target sequence (P41235 whole entry, looked up): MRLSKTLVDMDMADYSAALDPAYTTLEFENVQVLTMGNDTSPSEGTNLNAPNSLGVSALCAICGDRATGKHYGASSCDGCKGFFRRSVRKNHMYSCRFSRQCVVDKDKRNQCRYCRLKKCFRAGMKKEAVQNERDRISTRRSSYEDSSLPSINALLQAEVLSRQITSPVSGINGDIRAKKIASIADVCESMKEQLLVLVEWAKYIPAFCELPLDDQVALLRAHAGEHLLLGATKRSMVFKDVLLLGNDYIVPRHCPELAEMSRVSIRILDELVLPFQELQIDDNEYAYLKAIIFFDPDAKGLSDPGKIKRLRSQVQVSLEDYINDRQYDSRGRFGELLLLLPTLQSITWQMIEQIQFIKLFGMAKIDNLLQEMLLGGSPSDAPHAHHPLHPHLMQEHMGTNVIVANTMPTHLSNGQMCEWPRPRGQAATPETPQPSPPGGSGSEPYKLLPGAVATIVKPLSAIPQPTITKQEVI
FGF22 binding: FGF22 (human) thermal shift binding. actives 1.5% (n = 340,000). recombinant FGF22 thermal shift, SYPRO orange fluorescence; percent of sucrose octasulfate shift, DMSO zero. calls only at 9.99 µM. Q9HCT0;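 active = melting point raised past a set limit in the mean and every replicate; inconclusive = no clear call; three in four hits are not shown here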
Target sequence (Q9HCT0 whole entry, looked up): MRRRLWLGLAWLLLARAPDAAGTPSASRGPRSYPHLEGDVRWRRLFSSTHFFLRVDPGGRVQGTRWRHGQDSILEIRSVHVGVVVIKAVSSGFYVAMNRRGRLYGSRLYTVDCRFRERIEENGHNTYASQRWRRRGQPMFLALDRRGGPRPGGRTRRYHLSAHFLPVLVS
rRNA inh HTS: inhibits bacterial ribosomal RNA function over humanized ribosomes; E. coli WT GFP vs humanized-ribosome RFP mutants, fluorescence, 24 h; active compounds read low; DMSO median 0, no signal -100; GFP signal change (wild-type ribosome), % (concentration not given with the values); actives 1.6% (n = 350,000); AID 720706;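 active = significant combined selectivity score with lowered wild-type GFP, culture density cut under 30%, mutant RFP and density less affected; inactive = any of these conditions unmet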; note: one replicate is shown; some compounds called inactive have numbers as strong as hits
AF4-AF9 inh: blocks AF4 peptide binding to human AF9 | P42568 | AlphaScreen, biotin-AF4 peptide binding to FLAG-AF9 | inhibition, % at 10 µM | actives 0.47% (n = 350,000);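 active = every replicate reaching a set inhibition limit, whatever the replicate mean, cut at about 25% in these data; inconclusive = mean inhibition reaches that limit but some replicates miss it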;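 note: 0% = plate neutral control median and 100% = total signal loss; the record names both 10 and 1 µM as test concentration; the first replicate is given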
rRNA inh HTS OD600: also measured in rRNA inh HTS; calls as there; OD600 change, %; measured here: OD600 growth;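 optical density of the mix in the first replicate; 0 = DMSO median and -100 = no signal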
rRNA inh HTS RFP: also measured in rRNA inh HTS; calls as there; RFP signal change, %; measured here: RFP humanized mutant strains;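 first replicate; 0 = DMSO median and -100 = no signal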
Active calls of the source: *; i = inactive; ? = inconclusive; / = no result given.

SMILES	Vif A3G	ALR H2O2 inh	E coli growth	HNF4A DNA FP	FGF22 binding	rRNA inh HTS	rRNA inh HTS OD600	rRNA inh HTS RFP	AF4-AF9 inh
CC(C)CN(C(=O)C1CCCO1)c1c(N)n(CC(C)C)c(=O)[nH]c1=O (stereo not drawn)	-3%	/	0.69	-1.7	i	8	1	3.1	-1.4
Cc1cc(Cl)c(S(=O)(=O)Nc2cccc(O)c2)cc1OCC(N)=O	7%	-17	0.7	-1.7	i	/	/	/	-4.9
O=C(CN1CCOCC1)N1CCCCN2[C@@H](CO)[C@@H](c3ccc(-c4ccccc4F)cc3)[C@@H]2C1	/	/	/	/	i	-2	8	-2.6	-0.4
Cc1cc(=O)oc2c(CN3CCCCC3)c(O)c(Cl)cc12	2%	9	0.71	-2.3	/	/	/	/	/
COC(=O)N/N=C/c1ccc(-c2cc(Cl)cc(Cl)c2)o1	-12%	-2	/	2.9	i	-7	3	-2.0	1.0
COc1ccc(C(=O)Nc2nc3nc(-c4ccccc4)cc(=O)n3[nH]2)cc1	-2%	/	0.67	-26	/	/	/	/	/
CC(C)(C)OC(=O)N1CCC(c2c(C(=O)NCC3CCN(C4CCCC4)C3)cnn2-c2ccccc2)CC1 (stereo not drawn)	/	-3	/	-0.9	i	-1	-1	-0.4	10
O=C(Nc1ccccc1C(F)(F)F)N1CCC(N2CCCCC2)CC1	9%	-1	0.68	2.7	/	/	/	/	/
COCCNC(=O)CN(c1ccc(C)cc1)S(=O)(=O)c1ccc(SC)cc1	14%	-8	0.69	0.6	/	/	/	/	/
CN[C@H]1C[C@H]2c3[nH]c4ccc(-c5cccc(C)c5)cc4c3CCN2C[C@H]1[C@H](C)O	-2%	/	/	10	i	-57	-74	-13	40*
Cc1ccc(CCNC(=O)C2CCC(=O)N2C2CCCC2)cc1 (stereo not drawn)	77%	-2	0.7	-1.6	/	/	/	/	/
CCOc1cc(/C=N/NC(=O)C(C)Sc2ccccc2)ccc1O (stereo not drawn)	24%	99*	/	0.9	i	14	1	4.0	-0.9
COc1cc2c(cc1OC)CN(Cc1ccccc1)CC2	0%	-4	0.71	4.2	i	17	7	4.2	-5.2
CCCSc1nc2c(=O)[nH][nH]c(=O)c2n1Cc1ccccc1	14%	13	0.68	-1.0	/	/	/	/	/
O=C(O)COn1c(-c2ccccc2)nc2ccc([N+](=O)[O-])cc21	?	-18	0.6	-16	i	-17	-20	-1.7	-0.3
COC(=O)c1ccc(NC(=O)Nc2ccc(OC)cc2)cc1	?	4	0.66	-0.1	i	2	2	1.7	-4.7
Cc1cc(NS(=O)(=O)c2ccc(NC(=O)C(C)Oc3ccc4c(C)cc(=O)oc4c3)cc2)no1 (stereo not drawn)	20%	1	0.76	-1.1	/	/	/	/	/
COc1cc2[nH]c(=S)n(N(C(C)=O)C(C)=O)c(=O)c2cc1OC	-1%	13	0.66	0.8	/	/	/	/	/
Cn1c(Oc2ccc(F)cc2F)c(C=O)c2ccccc21	-7%	/	0.64	-1.6	i	-29	-39	-13	-1.4
COc1ccc(NC(=O)Nc2ccc3c(c2)C(=O)N([C@H](C)CO)C[C@H](C)[C@@H](CN(C)Cc2ccncc2)OCCCC[C@@H](C)O3)cc1	/	/	/	/	i	-1	-1	0.2	0.4

A portion from the list above, for reference:
SMILES	Vif A3G	ALR H2O2 inh	E coli growth	HNF4A DNA FP	FGF22 binding	rRNA inh HTS	rRNA inh HTS OD600	rRNA inh HTS RFP	AF4-AF9 inh
Cc1ccc(CCNC(=O)C2CCC(=O)N2C2CCCC2)cc1 (stereo not drawn)	77%	-2	0.7	-1.6	/	/	/	/	/
CCOc1cc(/C=N/NC(=O)C(C)Sc2ccccc2)ccc1O (stereo not drawn)	24%	99*	/	0.9	i	14	1	4.0	-0.9

Following part:
SMILES	Vif A3G	ALR H2O2 inh	E coli growth	HNF4A DNA FP	FGF22 binding	rRNA inh HTS	rRNA inh HTS OD600	rRNA inh HTS RFP	AF4-AF9 inh
NS(=O)(=O)c1ccc(CNC(=O)c2cc(-c3ccccc3)nc3ccccc23)cc1	-8%	-6	0.7	-1.5	i	-11	-1	-3.3	-5.5
N#Cc1c(-c2ccccc2)nc(N2CCN(Cc3ccccc3)CC2)[nH]c1=O	-2%	2	0.71	-3.7	i	-10	-6	7.3	-1.3
CO[C@H]1CN(C)C(=O)c2ccc(NS(=O)(=O)c3ccc(C)cc3)cc2OC[C@H](C)N(Cc2nccs2)C[C@@H]1C	/	/	/	/	i	1	-9	-0.9	0.7
COc1ccccc1N1CCN(C(=S)Nc2cccc(C)c2)CC1	/	17	0.68	0.2	i	1	-1	-3.5	1.2
CC(C)(C)NC(=O)CSc1nnc(Cc2ccc3c(c2)OCO3)n1C1CCCCC1	-3%	-6	0.77	2.6	/	/	/	/	/
O=C(Nc1ccc2ncccc2c1)c1ccccc1Cl	-3%	4	0.64	-1.9	i	7	6	0.2	1.3
O=C(Cn1cc(CNC(=O)C2CCCCC2)nn1)Nc1cc(C(F)(F)F)ccc1Cl	/	2	0.64	1.8	i	7	-6	6.4	-27
COC(=O)C[C@H]1c2ccc(C(F)(F)F)cc2S(=O)(=O)N1Cc1ccccc1	/	-7	/	-6.7	i	-7	-32	-1.5	-4.6
O=CNCC(=O)NC1CCCCCC1	17%	/	0.69	3.4	i	9	11	1.1	-36
CCN(CC)CC(=O)N1CCCC(C(=O)c2ccccc2OC)C1 (stereo not drawn)	11%	-9	0.69	-2.0	i	12	7	-1.4	-1.7
Cc1noc(C)c1S(=O)(=O)Nc1ccc2c(c1)C(=O)N([C@@H](C)CO)C[C@@H](C)[C@@H](CN(C)Cc1ccc(C(F)(F)F)cc1)OCCCC[C@H](C)O2	/	/	/	/	i	-1	-2	-3.6	-2.4
CC(NS(=O)(=O)c1ccc([N+](=O)[O-])cc1)C(c1cccs1)N1CCOCC1 (stereo not drawn)	-2%	-7	0.69	-0.3	i	0	7	3.6	4.8
COc1ccc(NC(C)C(=O)N/N=C/c2ccccc2OCc2ccc(Br)cc2)cc1 (stereo not drawn)	8%	-21	/	-0.2	/	/	/	/	/
COc1cccc(OCCn2cccc2/C=C2/C(=N)N3OC(C)=CC3=NC2=O)c1	1%	1	0.69	-3.5	i	2	5	0.8	-2.7
CC1=C(C(=O)N(C(C)C)C(C)C)CC(CC(=O)NC(c2ccccc2)c2ccccc2)C(=O)N1CCC1=CCCCC1 (stereo not drawn)	/	/	/	-0.8	i	9	16	0.7	-0.4
OCC[C@@H]1C[C@@H](O)[C@H](O)[C@]2(Cc3ccccc3CCO2)O1	/	0	/	4.6	i	1	-14	19	-4.8
COc1ccc(-c2nc3ccc(Br)cn3c2Cc2cccc(F)c2)cc1OC	/	/	/	0.2	i	-6	-29	19	3.3
COc1ccccc1NC(=O)Cn1cnc2c(oc3ccccc32)c1=O	4%	-4	0.71	-3.9	i	3	1	2.2	5.9
Cc1cc(NC(=O)CSc2nnc(-c3ccc(Br)o3)n2Cc2ccccc2)no1	4%	-18	0.74	1.8	/	/	/	/	/
COc1ccc(C(=O)NCC(c2ccccc2)c2ccccc2)cc1S(=O)(=O)N1CCOCC1	/	/	0.69	-4.3	i	2	-26	2.0	3.3
COc1cccc(NC(=O)N[C@H]2C=C[C@@H](CC(=O)Nc3ccc(-c4ccccc4)cc3)O[C@@H]2CO)c1	/	/	/	/	i	-12	-11	2.2	-0.3
CCCc1ccc2oc(C(=O)N3CCN(C4CCS(=O)(=O)C4)CC3)c(C)c2c1 (stereo not drawn)	/	3	0.65	-0.5	i	5	0	8.0	-9.1
S=C(NCCCN1CCOCC1)Nc1ccc(Cl)cc1Cl	3%	2	0.68	0.5	i	19	17	-6.4	-0.8
Cc1c(Cl)cccc1NC(=O)CN(C1CCCCC1)S(C)(=O)=O	/	-6	0.59	-2.4	i	-4	-4	-0.3	-15
C[C@@H]1CN([C@@H](C)CO)C(=O)Cc2cc(NC(=O)Nc3cccc4ccccc34)ccc2O[C@H]1CN(C)C(=O)Nc1ccc(C(F)(F)F)cc1	/	/	/	/	i	3	7	-0.3	0.5
CNC[C@@H]1Oc2ccc(NS(=O)(=O)c3ccc(C)cc3)cc2C(=O)N([C@H](C)CO)C[C@H]1C	/	/	/	/	i	-1	4	-0.6	6.8
COc1ccc(OC)c(CNC(=O)CCc2cn(C)c3ccccc23)c1	-4%	-6	0.66	4.6	i	-8	-5	-0.9	0.0
CCOc1ccccc1NC=C1C(=O)OC2(CCCCC2)OC1=O	18%	-2	0.68	-0.5	i	2	-4	0.6	-10.0
O=C(Nc1ccc2nsnc2c1)N1CCCCC1	?	-43	0.7	-0.8	/	/	/	/	/
COc1ccc(Br)cc1CN(C)CC(=O)NCCc1ccc(S(N)(=O)=O)cc1	2%	/	0.65	-2.2	i	2	14	8.0	3.4

Records above printed as active in ALR H2O2 inh.
SMILES,Vif A3G,ALR H2O2 inh,HNF4A DNA FP,FGF22 binding,rRNA inh HTS,rRNA inh HTS OD600,rRNA inh HTS RFP,AF4-AF9 inh
CCOc1cc(/C=N/NC(=O)C(C)Sc2ccccc2)ccc1O (stereo not drawn),24%,99*,0.9,i,14,1,4.0,-0.9

Next section
SMILES	Vif A3G	ALR H2O2 inh	E coli growth	HNF4A DNA FP	FGF22 binding	rRNA inh HTS	rRNA inh HTS OD600	rRNA inh HTS RFP	AF4-AF9 inh
COCCNC(=S)N1CCN(c2nc(-c3ccc(F)cc3)cs2)CC1	/	31	0.66	-1.6	i	-18	-34	-13	-0.7
C[C@H](NC(=O)C[C@H]1CC[C@H](NS(=O)(=O)c2cccc(F)c2)[C@H](CO)O1)c1ccccc1	/	/	/	/	i	2	9	-3.2	-3.0
Cc1ccc(C)c(C(=O)OCC(=O)Nc2ccc(N3CCOCC3)cc2)c1	6%	-2	0.7	-1.8	i	-6	-4	-0.2	1.8
CC(C)NCCOCCOc1ccc(Cl)cc1Br	/	-1	0.66	0.3	/	/	/	/	/
O=C(COC(=O)c1ccc2c(c1Cl)C(=O)c1ccccc1C2=O)NC1CC1	4%	-25	0.71	3.5	i	-35	-51	-4.4	-2.8
Cc1cc(-c2ccccc2)c2nncn2n1	-2%	-5	0.68	4.3	/	/	/	/	/
O=C(COc1ccc(Cl)cc1Cl)NNC(=S)NCc1ccco1	-8%	83*	0.68	-1.9	i	-6	-10	4.3	-3.9
COc1ccc(OCc2cc(C(=O)N3CCCCCCC3)no2)c(Cl)c1	2%	-4	0.69	3.0	i	-44	-69	-9.7	-1.4
O=C(/C=C/c1ccccc1)OCC(=O)N1CCCC1	-8%	/	0.65	-0.2	i	-1	-2	-1.0	0.4
COc1ccccc1NC(=O)N[C@H]1CC[C@@H](CCNS(=O)(=O)c2ccc(Cl)cc2)O[C@@H]1CO	/	/	/	/	i	-2	-2	0.7	0.9
CC(C)(CCC(=S)N1CCOCC1)C1CCCCC1	32%	-3	/	-4.2	i	-15	-36	-16	-1.8
Cc1ccc(S(=O)(=O)N[C@H]2CC[C@@H](CCNC(=O)C3CCC3)O[C@@H]2CO)cc1	/	/	/	/	i	-1	-7	-1.0	-1.9
CN(C)S(=O)(=O)c1ccc(C(=O)Nc2nnc(-c3ccc4c(c3)CCCC4)o2)cc1	-5%	36	0.78	-6.3	i	-30	-29	-11	-38
CC(=O)N[C@H]1[C@H](OC2CCCCC2)O[C@H](COC(C)=O)[C@@H](OC(C)=O)[C@@H]1OC(C)=O	-3%	-8	0.69	-1.4	i	23	20	-1.8	1.2
C[C@@H]1CN([C@H](C)CO)C(=O)c2cc(C#CCN(C)C)cnc2O[C@@H]1CN(C)Cc1ccc2c(c1)OCO2	/	/	/	/	i	4	7	-0.6	3.5
Cc1ccc(NC(=O)/C=C2\NC(=O)CS2)cc1	16%	-3	0.7	-1.4	i	-1	6	2.0	-18
Cn1c2ccc(F)cc2c2ncn(CCN3CCOCC3)c(=O)c21	-3%	/	0.69	3.4	/	/	/	/	/

Bioassay records: PubChem, several laboratories

This is a subset; count on the stated rates, not on these rows.
